Source: PubChem
2A Renilla: Primary qHTS Assay for Foot and Mouth Disease Virus Antivirals against NCGC Sytravon and CBC Compound Libraries: Renilla Luciferase Signal. 120,000 tested, 0.32% active. AID 1745857, 2022. Potency, µM (titrated, usually from 57.5 µM), inactives show top-dose signal change, negative = less light. HEK cells with a luciferase reporter of 2A StopGo recoding; active means well fitted falling curve with a large enough effect; inconclusive means small, poorly fitted or top-dose-only effect; inactive means no such curve, though single readings can be large or run the other way; also: nearly all actives have a fitted effect of over 55% in size; overnight with compound
StopGo FLuc: Primary qHTS Assay for Foot and Mouth Disease Virus Antivirals against NCGC Sytravon and CBC Compound Libraries: Firefly Luciferase Signal; Potency, µM (highest dose often 57.5 µM), inactives show top-dose signal change, negative = less light; 120,000 tested, 0.23% active; HEK cells with a luciferase reporter of 2A StopGo recoding; active = well fitted falling curve with a large enough effect; inconclusive = small, poorly fitted or top-dose-only effect; inactive = no such curve, though single readings can be large or run the other way; also: nearly all actives have a fitted effect of over 60% in size; overnight with compound
Starred values were filed as active, the others as inactive; ? = inconclusive; & = joins results of further samples; [ ] = dose if it differs, or a comment. % is scaled to controls: 0 for no effect and ±100 for the full control effect; potency is read from the fitted curve at half-maximal effect.

SMILES	2A Renilla	StopGo FLuc
Cc1nc2ccc(C(=O)NCC3CCN(C(C)C)C3)cc2nc1C (stereo not given)	-14%	91%[activator]
O=C(NC(C(=O)c1ccccc1)N1CCCCC1)c1cccs1 (stereo not given)	140%[activator]	123%[activator]
Cc1ccc(C)c(N2CCN(C(=O)Cn3ncc4c(=O)oc5ccccc5c43)CC2)c1	-12%	-18%
COCC(C)NC(=O)CSc1nc2ccccc2nc1C (stereo not given)	-6%	-3%
CC(=O)Nc1ccc2oc(-c3ccc(C)c(Cl)c3)nc2c1	8%	214%[activator]
O=C(NCc1ccccc1)c1ccc(Cn2c(=O)c3cccn3c3cccnc32)cc1	-2%	-11%
Cc1cc2c(cc1S(=O)(=O)N(C)CC(=O)Nc1cccc(C#N)c1)OCC(=O)N2	19%	-1%
CN(C)C1(CNC(=O)COc2ccc([N+](=O)[O-])cc2)CCCCC1	-7%	0%
CN(C)Cc1nnc(-c2ccc(Br)o2)o1	-4%	25%
CCCCn1c(N)c(N(CCOC)C(=O)c2cc3c(s2)CCCCC3)c(=O)[nH]c1=O	31%[activator]	55%[activator]
c1csc(-c2nnc3n2C2(CCCC2)Cc2ccccc2-3)c1	8%	11%
CCCCCCC(C)NCc1cccc2ccccc12 (stereo not given)	-5%	5%
CCOC(=O)N1CCC(NC(=O)c2cc3cc(C)ccc3[nH]2)CC1	-4%	5%
Cc1ccc(S(=O)(=O)N2CCC(C(=O)NCc3cnn(-c4ccccc4)c3)CC2)cc1C	9%	-4%
FC(F)(F)c1cccc(CSc2nc(-c3ccccc3)c3ccccc3n2)c1	11%	4%
O=C(OCc1ccco1)c1ccc2c(c1)N(Cc1cccc(F)c1)C(=O)c1ccccc1S2	15%	18%
Clc1cccc(-c2noc3ncnc(NC4CCCCC4)c23)c1	-10%	0%
CCOC(=O)c1c(C)[nH]c(CCC(=O)NCc2ccc(F)cc2)c1C	6%	-8%
CC(=O)C1(C)N(O)C(C)(C)C(c2ccc(Cl)c(C)c2)=[N+]1[O-] (stereo not given)	2%	-4%
Cc1ccccc1NC(=O)CCC(=O)N1CCSc2ccccc21	33%[activator]	17%
CCOC(=O)c1c(C)c(-c2ccccc2)n(CC(=O)NCCN2CCCCC2CC)c1C (stereo not given)	1%	-15%
CCn1c(=O)n(-c2ccc(F)c(Cl)c2)c(=O)c2sc3ccccc3c21	-5%	-8%
CC(C)NC(=O)C(=O)N1CCN(c2ccnc3c(F)ccc(F)c23)CC1	-9%	6%
CCN1CCN(C(=O)c2cnc(N3CCOCC3)c3ccccc23)CC1	6%	0%
O=C(Nc1cccc(Br)c1)C1CCN(S(=O)(=O)Cc2ccccc2)CC1	-2%	-10%
CC1CCN(S(=O)(=O)c2ccc(NC(=O)c3cc(=O)c4cc(Cl)ccc4o3)cc2)CC1	-6%	-4%
COc1cc(NC(=O)Nc2ccc(F)c(-c3nnc(-c4ccccc4)o3)c2)cc(OC)c1OC	31%[activator]	121%[activator]
COc1ccccc1-c1nnc(SC(C(=O)N2CCOCC2)c2ccccc2)n1C1CCCCC1 (stereo not given)	66%[activator]	42%[activator]
N#CC1(C(=O)OCC(=O)Nc2ccc(N3CCOCC3)cc2)CCCC1	-7%	8%
COc1ccc(CNC(=O)CS(=O)(=O)c2cccc3nsnc23)cc1	2%	12%
COCCNC(=O)Cc1nn(C)c(=O)c2ccccc12	3%	9%
CNC(=O)c1nn(CC(=O)NCCc2ccc(F)cc2)c(=O)c2ccccc12	16%	34%
COc1ccc2c(COC(=O)c3ccc(OCC4CCCO4)cc3)cc(=O)oc2c1 (stereo not given)	9%	14%
COc1ccc(C(NC(=O)COc2ccccc2)c2nccn2C)cc1 (stereo not given)	4%	23%
CCS(=O)(=O)N1CC(=O)N(c2cccc(C)c2C)C(C)(C(=O)NC2CCCCC2)C1 (stereo not given)	1%	0%
O=C(Nc1nc(-c2ccc(F)c(F)c2)cs1)C1CCCN(C(=O)c2ccoc2)C1 (stereo not given)	?	-19%
O=C(Nc1cc2ccc(O)cc2oc1=O)c1ccccc1	17%	121%[activator]
Cc1ccc(C(CCNCc2ccccc2)c2ccco2)cc1 (stereo not given)	-25%	-1%
CCOc1ccc(-c2cc(CCCC(=O)NCCc3ccc(SC)cc3)no2)cc1	-6%	?
COCCNC(=O)CSc1nc2cc3c(cc2c(=O)n1CCCC(=O)NCc1ccc2c(c1)OCO2)OCO3	-4%	-17%
O=C(CSc1nc(-c2ccccc2)[nH]c1-c1ccccc1)Nc1ccc2c(c1)OCO2	7%	?
CCOc1ccc(NS(=O)(=O)c2ccc3c(c2)N(CC(=O)OC)C(=O)CS3)cc1	181%[activator]	-8%
CCOc1ccc(NC(=O)c2ccc(F)c(S(=O)(=O)NCc3ccc4c(c3)OCO4)c2)cc1	16%	?
CC(C)NC(=O)C1CCN(C(=O)c2cnn(-c3ccccc3)c2-n2cccc2)CC1	-5%	17%
Cc1ccc(C(=O)NCCc2ccc(Cl)cc2)cc1-n1c(C)nc2cccnc21	-15%	-22%
COc1ccc(NC(=O)NC2COc3ccccc3C2)cc1Cl (stereo not given)	0%	21%
CCOc1ccc(CNS(=O)(=O)c2ccc(-c3coc(C)n3)cc2)cc1	-29%	-10%
Cn1nc(C(=O)NC(Cc2ccccc2)c2ccccc2)c2ccccc2c1=O (stereo not given)	-17%	-21%
CC(C)CNC(=O)c1cc2cc(N(C)S(C)(=O)=O)ccc2s1	?	44%[activator]
COc1ccccc1CNc1ncnc2c1nc1n2CCCC1	56%[activator]	140%[activator]
Cc1ccc(C2CCN(C(=O)c3cnn(-c4ccc(C)c(C)c4)c3C3CCN(C(=O)OC(C)(C)C)CC3)C2)cc1 (stereo not given)	-8%	-21%
COc1ccc(-c2nc(SC(C)C(=O)NC(=O)NC3CCCCC3)n[nH]2)cc1 (stereo not given)	51%[activator]	-5%
COc1ccccc1CC(=O)NC(c1ccccc1)c1ccccc1	29%	0%
Nc1ccc([N+](=O)[O-])cc1C(=O)O	3%	-1%
CC(=O)N1CCc2cc(S(=O)(=O)NC(C(=O)Nc3ccc(C)cc3C)C(C)C)ccc21 (stereo not given)	-8%	-14%
O=C(Cc1n[nH]c(=O)c2ccccc12)NCC(=O)NC1CC1	-4%	-3%
O=C(Nc1ccc2nc(SCCOc3ccccc3)sc2c1)c1ccc2c(c1)OCO2	-17%	-22%
O=C(O)c1ccc(-c2ccc(CNC3CCCC3)o2)cc1	12%	147%[activator]
CC1CCC(N2CC(=O)N(C3CCCC3)C(c3ccc(Cl)cc3)C2=O)CC1 (stereo not given)	-6%	-22%
Cc1ccc(CN(C)C(=O)c2nn(Cc3ccccc3)c(=O)c3ccccc23)o1	161%[activator]	7%

Four of the compounds above, as labelled records.
COc1cc(NC(=O)Nc2ccc(F)c(-c3nnc(-c4ccccc4)o3)c2)cc(OC)c1OC
  2A Renilla = 31%[activator]; StopGo FLuc = 121%[activator]
COc1ccccc1-c1nnc(SC(C(=O)N2CCOCC2)c2ccccc2)n1C1CCCCC1 (stereo not given)
  2A Renilla = 66%[activator]; StopGo FLuc = 42%[activator]
N#CC1(C(=O)OCC(=O)Nc2ccc(N3CCOCC3)cc2)CCCC1
  2A Renilla = -7%; StopGo FLuc = 8%
COc1ccc(CNC(=O)CS(=O)(=O)c2cccc3nsnc23)cc1
  2A Renilla = 2%; StopGo FLuc = 12%

Not a retest: two of the compounds above.
SMILES	2A Renilla	StopGo FLuc
O=C(Nc1ccc2nc(SCCOc3ccccc3)sc2c1)c1ccc2c(c1)OCO2	-17%	-22%
O=C(O)c1ccc(-c2ccc(CNC3CCCC3)o2)cc1	12%	147%[activator]

The list continues.
SMILES	2A Renilla	StopGo FLuc
COc1ccc(C2=NS(=O)(=O)N(C)C(C(=O)NC(C)c3ccccc3)=C2)cc1 (stereo not given)	45%[activator]	-6%
CCC(C)NC(=O)c1sc2nc(C)c(C(=O)Nc3ccc(C)cc3C)c(-c3ccccc3Cl)c2c1N (stereo not given)	-13%	-21%
COC(=O)N(C)CC(=O)NC1CCCCC1C (stereo not given)	-3%	19%
O=C(NCCSc1c(-c2ccc(F)cc2)[nH]c2ccccc12)c1ccc(S(=O)(=O)N2CCOCC2)cc1	?	?
COC(=O)c1c(Cl)c(Cl)c(C(=O)OC)c(Cl)c1Cl	0%[114 µM]	-17%[115 µM]
COc1cc(OC)cc(OC)c1	-4%	-12%[11.5 µM]
COCCCNc1nc2ccccc2nc1C(C#N)C(=O)OC (stereo not given)	23%	38%[activator]
Cc1ccc(Cl)cc1NC(=O)C(C)NS(=O)(=O)c1ccc2c(c1)CCN2C(=O)N1CCCC1 (stereo not given)	28%	-11%
Cc1c(C(=O)OCC(=O)Nc2ccc(C(=O)N(C)C)cc2)oc2ccccc12	9%	0%
Nn1c(SCC(=O)NCc2ccc(Cl)cc2)nnc1-c1ccco1	5%	8%
Cc1cc([N+](=O)[O-])c2ccccc2[n+]1[O-]	?	?
Cc1ccc(Cl)cc1NC(=O)Cn1c(=O)n(C(C)C)c(=O)c2oc3ccccc3c21	-7%	-12%
CCOC(=O)C1CCCN(S(=O)(=O)NCc2ccnc(Oc3ccc(OC)cc3)c2)C1 (stereo not given)	-15%	?
O=C(CCCN1C(=O)C(c2ccccc2)Oc2cccnc21)NC1CCCCC1 (stereo not given)	5%	6%
Cc1ccc(-c2cc(C(F)(F)F)n3nc(-c4cccc(Br)c4)cc3n2)cc1	-7%	-18%
O=C(O)CSC(c1ccc(F)cc1)c1ccc(F)cc1	3%	6%
O=C(NCc1ccccc1F)c1sc2ncccc2c1-n1cccc1	81%[activator]	-10%
CCC1CCCCN1Cc1cn2c(-c3ccc(Br)cc3)nnc2s1 (stereo not given)	0%	4%
O=C(/C=C/c1cccc(Cl)c1)c1cccc(O)c1	0%	134%[activator]
CCOC(=O)c1cnc(SCc2nc(-c3ccccc3Cl)oc2C)nc1N	-6%	6%
COC(=O)C1CCN(CC(=O)Nc2cc(C)c3c(=O)oc4ccccc4c3n2)CC1	-17%	-17%
Cc1oc2ncn(C)c(=O)c2c1C(=O)N1CCN(c2ccccc2F)CC1	-13%	-12%
CCOc1ccc(CCNC(=O)c2cn(C)c3ccc(S(=O)(=O)N4CCCCC4)cc3c2=O)cc1OCC	3%	-6%
CCCC12CN(C(C)=O)CC(CCC)(CN(C(C)=O)C1)C2=O	-18%	-15%
Cc1ccc(-c2nc(CS(=O)Cc3ccccc3)co2)cc1 (stereo not given)	37%[activator]	91%[activator]
COC(=O)C(N)Cc1ccc2ccccc2c1 (stereo not given)	-9%[1.06 µM]	5%
O=C(Cc1cccc(C(F)(F)F)c1)NCC1(N2CCCCC2)CCCCC1	-2%	-9%
O=C(CSc1ncc(CO)n1Cc1ccc(Cl)cc1)NCc1ccc(F)cc1	-8%	-9%
Cc1ccc(NC(=O)C(=O)c2c(C)[nH]c3ccccc23)cc1	82%[activator]	154%[activator]
O=C(CSc1nc2cc([N+](=O)[O-])ccc2o1)NCc1ccccc1F	24%	9%
CNCCCNC(=O)/C(=N\O)c1ccccc1	1%	1%
O=C(CCSc1nnc(NC2CC2)s1)Nc1ccccc1F	137%[activator]	5%
CC(NC(=O)C1CCN(C(=O)C(C)(C)C)CC1)C1CC1 (stereo not given)	-14%	-5%
CCc1cc(=O)oc2c(C)c(OCC(=O)NCc3ccncc3)ccc12	-11%	-2%
CCC(C)Sc1ccc(NC(C)=O)c(C)c1 (stereo not given)	-7%	0%
C/C=C/Cn1c(SCc2ccc(F)cc2)nc2c1c(=O)[nH]c(=O)n2C	6%	15%
Cc1ccc(S(=O)(=O)c2nc(-c3cccc(Br)c3)oc2N2CCCCCC2)cc1	11%	-5%
Cc1c(Cl)cccc1-n1ncc(C(=O)NCCN2CCN(C)CC2)c1C1CCN(C(=O)OC(C)(C)C)CC1	-12%	-21%
COC(CNC(=O)CNC(=O)OCc1ccccc1)c1ccccc1 (stereo not given)	-1%	4%
Cc1ccc2[nH]c(=O)c(CN(C)C(=O)c3ccc(C(C)(C)C)cc3)cc2c1	4%	9%

Record cards (already shown):
CCn1c(=O)n(-c2ccc(F)c(Cl)c2)c(=O)c2sc3ccccc3c21 reads 2A Renilla: -5%; StopGo FLuc: -8%
O=C(OCc1ccco1)c1ccc2c(c1)N(Cc1cccc(F)c1)C(=O)c1ccccc1S2 reads 2A Renilla: 15%; StopGo FLuc: 18%

The listing continues.
SMILES	2A Renilla	StopGo FLuc
Cc1cccc2c(=O)c(-c3ccccc3)c(NC(=O)c3cccc([N+](=O)[O-])c3)oc12	-18%	-3%
O=C(Cn1ncc2c(=O)oc3ccccc3c21)Nc1cc(F)ccc1F	-13%	0%
O=C(Nc1ccc(F)c(F)c1F)c1ccccc1-c1ccccc1	26%	-10%
Cc1cccc(N2CCN(C(=O)c3ccc(CNS(=O)(=O)c4ccc5ccccc5c4)cc3)CC2)c1	-6%	8%
Cc1ccc(-c2noc(CCC(=O)Nc3cccc(S(=O)(=O)NC4=NCCC4)c3)n2)cc1	-11%	34%[activator]
Cc1oc(-c2ccccc2)nc1CSc1nc2c(c(=O)[nH]1)CCC2	34%[activator]	37%[activator]
Cc1ccsc1C(=O)OCC(=O)Nc1ccc(Cl)c(C(F)(F)F)c1	0%	23%
CCCCn1nc(C(=O)Nc2ccc(C)cc2Br)c2ccccc2c1=O	-7%	-5%
COC(=O)CNC(=O)CC12CC3CC(CC(C3)C1)C2	18%	22%
COc1cccc(C(=O)N2CCN(c3oc(-c4ccccc4)nc3C#N)CC2)c1	0%	-3%
Cc1ccc(Cl)cc1N1CCN(C(=O)COCc2cc(-c3ccc4c(c3)OCO4)on2)CC1	-5%&12%	-8%&0%
N#Cc1nc(COc2ccccc2F)oc1N1CCCCCC1	5%	132%[activator]
CC(C)Cn1cnc2c1c(=O)n(CC(=O)Nc1cccc(C(F)(F)F)c1)c(=O)n2Cc1ccccc1	15%	-9%
